Source: PubChem
NPYLR7 agonist: activates Aedes aegypti NPYLR7 receptor; HEK293T NPYLR7/Galpha15, GCaMP6s calcium fluorescence; activation, % at 10 µM; hit rate 0.15% among 270,000; AID 1259423; in the data active = activation above about 40%;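 note: 0% = vehicle and 100% = reference agonist at the receptor; some compounds past the cut are filed as inactive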
NPYLR7 agonist max-min: also measured in NPYLR7 agonist; calls as there; activation, %; measured here: Max-Min RFU normalised activation; some inactives read as strong as hits;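 span of the calcium signal over five minutes; 0% = vehicle and 100% = native peptide agonist; compound fluorescence can raise it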
An asterisk follows results filed as active; & = joins results of further samples. The list is partial. The share of hits here may be higher or lower than overall.

SMILES	NPYLR7 agonist	NPYLR7 agonist max-min
CCCC1=NN(C(C)=O)C(C(=O)NC(C)c2ccc(F)cc2)O1 (stereo not drawn)	16	13
O=c1nc(/C=C/c2c(O)ccc3ccccc23)cc(C(F)(F)F)[nH]1	0	-1
CCOc1ccc(CNC(=O)c2ccc(-c3ccco3)[nH]c2=O)cc1C	1	0
O=C(CCCOc1ccc(Br)cc1)Nc1cccc2ncccc12	11	14
Cc1ccc(S(=O)(=O)n2cc(CCCN(C)C3CCS(=O)(=O)C3)c(C(F)(F)F)n2)cc1 (stereo not drawn)	2	8
CC(C(=O)N1CCc2onc(-c3cccc(F)c3)c2C1)n1ccnc1 (stereo not drawn)	6	19
Cn1c2c(c3ccccc31)C[C@H]1C[C@@H]2[C@@H](Oc2ccccn2)CN1Cc1nccs1	19	16
COc1ccc(-c2noc(-c3c(SC)nn(CC(=O)Nc4cc(C)cc(C)c4)c3N)n2)cc1	4	-1
CC(C)C(=O)N(Cc1ccco1)Cc1nccn1Cc1cccc(C(F)(F)F)c1	13	14
CCOC(=O)c1nc2cc(Cl)c(Cl)cc2nc1N1CCCN(S(C)(=O)=O)CC1	2	-1
Cc1nc2sccn2c(=O)c1NC(=O)COc1ccc(Cl)cc1	8	-3
CN(C)C(=O)CSc1nnc(NC2CC2)s1	7	0
COc1ccc(C2=NOC(CN(Cc3cccc(Cl)c3)CC(O)COCC(C)C)C2)cc1 (stereo not drawn)	-1	5
O=c1cc(CN2CCCC2c2cccs2)nc2ccc(Br)cn12 (stereo not drawn)	10	7
Fc1ccc(Oc2cc(N3CCN(c4ccccc4F)CC3)ncn2)c(F)c1	-5	3
CC(C)C1CN(C(=O)c2cn(CCN)nn2)CCCN1Cc1ccc(F)cc1 (stereo not drawn)	6	5
NC(=O)COC(=O)c1ccc(Oc2ccccc2)cc1	0	-1
CCc1nc2ccc(C(=O)NC(C)(C)C)cn2c1N(C)Cc1cccs1	-12	-13
CCOC(=O)C1CCCN(C(=O)Cc2csc(NC(=O)CN(C(=O)c3ccc(F)cc3)C3CC3)n2)C1 (stereo not drawn)	-6	-13
O=C(c1ccc(F)cc1)N(Cc1nccn1Cc1cccc(F)c1)C1CC1	6	12
Cc1cc(NCCN(C)C)n2nc(C)c(-c3ccccc3Cl)c2n1	3	7
COc1ccc(NC(C)(C)C(=O)N2CCC3(CC2)CNC(=O)C3)cc1	-1	-1
CNS(=O)(=O)c1ccc2c(c1)oc(=O)n2C	0	1
COc1ccc(-c2ccc(C(=O)N(Cc3nccn3C)C3CC3)o2)cc1	33	19
CCCN(Cc1nccn1C)C(=O)c1cc2cc(C)ccc2nc1C	-3	-6

Some of these compounds in order of count of non-hydrogen atoms, smallest number first.
SMILES	NPYLR7 agonist	NPYLR7 agonist max-min
CNS(=O)(=O)c1ccc2c(c1)oc(=O)n2C	0	1
Fc1ccc(Oc2cc(N3CCN(c4ccccc4F)CC3)ncn2)c(F)c1	-5	3
Cc1ccc(S(=O)(=O)n2cc(CCCN(C)C3CCS(=O)(=O)C3)c(C(F)(F)F)n2)cc1 (stereo not drawn)	2	8
COc1ccc(C2=NOC(CN(Cc3cccc(Cl)c3)CC(O)COCC(C)C)C2)cc1 (stereo not drawn)	-1	5
COc1ccc(-c2noc(-c3c(SC)nn(CC(=O)Nc4cc(C)cc(C)c4)c3N)n2)cc1	4	-1

The listing continues.
SMILES	NPYLR7 agonist	NPYLR7 agonist max-min
COc1ccc(CCOc2nc(-c3ccc(OC)cc3)n(-c3ccc(NC(=O)c4ccc(OC)cc4)cc3)n2)cc1	20	19
c1ccc(CCCNc2nc(Nc3ccccc3)c3nccnc3n2)cc1	3	5
O=C(CN1C(=O)C2C3C=CC(C3)C2C1=O)N1CCN(C(=O)c2ccco2)CC1 (stereo not drawn)	-1	-1
COCCNC(=O)c1cc(-c2ccccc2Cl)nc2cc(-c3ccccc3)nn12	8	11
CC(C)CC(=O)NC(NC(=S)Nc1cccc(C(=O)O)c1)C(Cl)(Cl)Cl (stereo not drawn)	-17	-23
O=c1c(Cl)c(Oc2ccccc2)cnn1Cc1ccccc1	11	9
O=C1CC(NCc2ccncc2)C(=O)N1c1ccc(Br)cc1 (stereo not drawn)	3	1
CCCCCCCC/C=C\CCCCCCCC(=O)N[C@@H](CO)Cc1ccc(O)cc1	-4	-13
CC1C2CC(CC2c2ccccc2O)C1(C)C (stereo not drawn)	-4	17
Cc1ccccc1N1CCN(C2CCCN(Cc3ccccc3OCCO)C2)CC1 (stereo not drawn)	5	4
CC1CN(c2cc(Cl)nc(SCC(=O)NCCN3CCCCC3)n2)CCN1C(=O)C1CC1 (stereo not drawn)	-12	-7
COCCn1c(CN2CCN(c3ccccc3)CC2)nc2c1c(=O)n(C)c(=O)n2C	8	2
O=C(c1ccccc1Br)N1CCN(C(=O)c2ccccc2Br)CC1	3	0
Cc1ccc(-c2cc(C(=O)N3CCc4ccccc4C3)n(-c3cccc(Cl)c3)n2)cc1C	0	4
CCCc1n[nH]c(=O)n1-c1ccccc1Cl	9	-3
CC(C)(C)Nc1nc(NC(C)(C)C)n2c(=O)[nH]nc2n1	-2	-4
Cc1cc(C)cc(OCCN(C)C(=O)c2nccnc2N)c1	10	11
COC(=O)C(C)Sc1nc(CC(C)(C)C)nc2c1c(=O)n(C)c(=O)n2CC(C)C (stereo not drawn)	-1	4
Cc1cc(C(=O)NCC(O)COc2ccc(F)cc2)c2[nH]ncc2c1 (stereo not drawn)	3	2
CC(=NNc1nc2ccccc2[nH]1)c1ccccn1	-7	-16
Cc1cc(C)cc(NS(=O)(=O)c2cnc[nH]2)c1	12	9
CC(=O)Nc1ccc(C2=NOC(C)C(=O)N2Cc2ccc(F)cc2)cc1 (stereo not drawn)	15	9
CS(=O)(=O)CCC1NC(=O)N(CCOc2ccc(F)cc2)C1=O (stereo not drawn)	14	7
COc1ccc(Cn2cc3cnc(C(=O)N(C)CC(C)C)cc3c2)cc1	1	-4
CC1=C(C(=O)N(C)Cc2ccc3c(c2)OCO3)C(c2cccnc2)NC(=O)N1 (stereo not drawn)	1	1

Pulled by compound from above, 2 records:
SMILES	NPYLR7 agonist	NPYLR7 agonist max-min
Cc1ccccc1N1CCN(C2CCCN(Cc3ccccc3OCCO)C2)CC1 (stereo not drawn)	5	4
Cc1ccc(-c2cc(C(=O)N3CCc4ccccc4C3)n(-c3cccc(Cl)c3)n2)cc1C	0	4

(listing goes on)
SMILES	NPYLR7 agonist	NPYLR7 agonist max-min
O=C(NCC1(c2cccs2)CCOCC1)C(=O)Nc1cc2c3c(c1)CC(=O)N3CCC2	5	4
CC1CCC(NC(=O)CCC(=O)N2CCN(c3ccccn3)CC2)CC1 (stereo not drawn)	-4	-11
CC(=O)NC(C(=O)NC1(C(=O)O)CCCCC1)C(C)C (stereo not drawn)	-1	5
Cc1ccc(-c2cc(N)n(CC3CCCCC3)n2)cc1	2	-1
O=C(O)c1cc2c(s1)-c1cc(F)ccc1SC2	2	9
NCc1cc2cc(I)ccc2s1	1	8
COc1ccc(C(CC(=O)N(C)C)c2ccccc2)cc1 (stereo not drawn)	5	0
COc1cccc(-c2nnc(SCc3nc(C(=O)Nc4ccc(C)c(C)c4)cs3)n2-c2ccccc2)c1	-1	8
NCc1csc(Nc2nncc3ccccc23)n1	-3	-7
O=C(CCN1CCc2ccccc2C1)NCc1ccccc1Cl	-1	-2
Cc1ccc(C2(c3noc(COc4cccc(O)c4)n3)CCCC2)cc1	19	7
Nc1ncnc2c1c1nc3ccccc3nc1n2CCc1ccccc1	-4	-3
COc1c(F)cccc1C(=O)N1CCC(O)(CN(C)C)C1 (stereo not drawn)	15	12
O=c1c2c(nc(SCc3ccccc3)n1-c1ccc([N+](=O)[O-])cc1)CCS2	0	27
COC(=O)CCC(=O)N1CCN(C(c2ccc(F)cc2)c2ccc(F)cc2)CC1	-1	-1
Cc1ccc(C(=O)NCCc2nnc3ccc(SCC(=O)Nc4nnc(C)s4)nn23)cc1	-2	-11
CN(C)S(=O)(=O)c1cccc(CS(=O)(=O)CCC(=O)NC2CC2)c1	8	6
CCCN(CC(=O)N(Cc1ccc2c(c1)OCO2)Cc1ccc(C)o1)C(=O)Nc1ccc(SC)cc1	-5	-3
CCn1c(CNC(=O)c2ccc(OC)cc2)nnc1SC	-2	-6
CC(=O)N[C@@H]1C[C@H](Cc2ccccc2)O[C@H](c2coc3ccccc3c2=O)C1	21	12
O=C(Nc1nnc(-c2ccc3c(c2)OCO3)s1)C1CCCN1C(=O)c1cccc(Br)c1 (stereo not drawn)	27	24
CCOc1ccccc1C(=O)Nc1cc(-c2ccccc2)nn1-c1ccccc1Cl	6	6
CC1(C)CCc2sc(CN)cc2C1	19	8
O=C(NC1CCN(Cc2ccccc2)CC1)C1CCN(c2nc3ccccc3[nH]c2=O)CC1	33	33
COc1ccc(C2(CC(=O)N3CCCC(COc4ccccc4F)C3)CC(=O)N(C3CC3)C2=O)cc1 (stereo not drawn)	4	0

In the list so far, three contain a tert-butyl group:
SMILES	NPYLR7 agonist	NPYLR7 agonist max-min
CCc1nc2ccc(C(=O)NC(C)(C)C)cn2c1N(C)Cc1cccs1	-12	-13
CC(C)(C)Nc1nc(NC(C)(C)C)n2c(=O)[nH]nc2n1	-2	-4
COC(=O)C(C)Sc1nc(CC(C)(C)C)nc2c1c(=O)n(C)c(=O)n2CC(C)C (stereo not drawn)	-1	4

Additional compounds:
SMILES	NPYLR7 agonist	NPYLR7 agonist max-min
CC(C(=O)NCC(c1ccccc1)N(C)C)N1C(=O)c2ccccc2C1=O (stereo not drawn)	12	9
COC(=O)c1ccc(C(=O)N2CCN(CC(OCc3c(F)cccc3F)c3ccc(Cl)cc3)CC2)cc1 (stereo not drawn)	4	-1
CC(NC(=O)CCC1CCCO1)c1cccc(OCc2ccccn2)c1 (stereo not drawn)	1	6
CCc1nnc(-c2cc3ccccc3n2CC(=O)NC(C)C)o1	-2	-1
COC(=O)Cn1c(=O)c2c(nc3n(CC(C)C)c(C)c(C)n23)n(C)c1=O	5	11
COc1ccc(NC(=O)N2CCC3(CC2)C(=O)N(CC(=O)NCC2CCCO2)CN3c2ccccc2)cc1 (stereo not drawn)	-4	10
O=C1N(Cc2ccccc2)C(c2ccccc2)=NC1(Nc1ncccn1)C(F)(F)F (stereo not drawn)	-6	-13
CCN(CC)C(=O)c1ccc(Cl)c(NC(=O)c2occc2C)c1	-2	-4
Cc1ccc(-c2ccc(CCC(=O)N3CCCCC3)n2-c2ccc(CC#N)cc2)c(C)c1	0	-3
Cc1cc(OC(=O)c2cccc([N+](=O)[O-])c2C)c([N+](=O)[O-])c(=O)[nH]1	-1&6	0&6
O=C(Nc1cc(C(F)(F)F)ccc1N1CCc2ccccc2C1)c1c(O)c2ccccc2[nH]c1=O	10	5
Cc1nc(C)c(C(C)NC(=O)N(C)Cc2ccccc2O)s1 (stereo not drawn)	0	-4
CCOC(=O)c1ccc2c(c1)nc(SCc1ccccc1I)n2Cc1ccco1	-4	-8
O=C(COc1ccc2ccccc2c1)N=Nc1c(O)n(CO)c2ccccc12	1	1
CC(=NNP1(=O)C=C(c2ccccc2)OC(c2ccccc2)=C1)c1ccccn1	5	3
COC(=O)c1ccc(/C=N\NC(=O)CSc2nnc(-c3ccccc3)n2-c2ccccc2)cc1	-5	-13
Cc1sc2nc3c(SC(C)C(=O)O)cc(C(=O)c4ccccc4O)cn3c(=O)c2c1C (stereo not drawn)	0	3
COc1cc(Br)cc2c1OC1(C)CC2NC(=O)N1c1ccc(C)cc1 (stereo not drawn)	-13	-16
Cc1cc(Cl)ccc1Nc1nc(NCCN2CCOCC2)nc2nccnc12	3	7
CCNC(=O)Cc1ccc(-c2cc(Cl)c3c(c2)CC(CN)O3)cc1 (stereo not drawn)	1	-5
COC(=O)c1ccc(F)cc1S(=O)(=O)Nc1cc(C#N)ccc1C	3	0
CC1CCCCC1n1ccc2c(nnc3c(-c4ccccc4)cnn32)c1=O (stereo not drawn)	26	11
CCN1CCN(C(=O)c2cccc(Nc3c(Oc4cccc(C(C)C)c4)cnn(-c4cccc(Cl)c4)c3=O)c2)CC1	-8	-5
Cc1nnc2c(C(=O)NCCC3=CCCCC3)cccn12	-8	-16
CCc1ccc(NC(=O)Nc2ccc(N3CCC(C)CC3)c(C(=O)NCCOC)c2)cc1	-4	2

A section from the list above:
SMILES	NPYLR7 agonist	NPYLR7 agonist max-min
CC(C(=O)NCC(c1ccccc1)N(C)C)N1C(=O)c2ccccc2C1=O (stereo not drawn)	12	9
COC(=O)c1ccc(C(=O)N2CCN(CC(OCc3c(F)cccc3F)c3ccc(Cl)cc3)CC2)cc1 (stereo not drawn)	4	-1

Other compounds
SMILES	NPYLR7 agonist	NPYLR7 agonist max-min
CC(C(=O)NCCc1cnc[nH]1)N1C(=O)c2cccc3cccc1c23 (stereo not drawn)	-3	-6
Cc1ccc(N2C(=O)CC(N3CCN(Cc4ccc5c(c4)OCO5)CC3)C2=O)c(C)c1 (stereo not drawn)	2	-1
CC1(C(=O)NS(=O)(=O)c2cccc(OC(F)F)c2)CCN1C(=O)CCc1ccccc1 (stereo not drawn)	-4	-1
O=C(NCc1ccccn1)c1cc(NCC[C@@H]2C[C@@H]3C=C[C@H]2C3)ccn1	1	-1
Cc1ccc2nc(SCc3cc(=O)n(C)c(=O)n3C)[nH]c2c1	4	2
CS(=O)(=O)c1ccc2nc(NC(=O)c3ccc(F)cc3)sc2c1	-2	-4
CC(=O)Nc1ccccc1NC(=O)CN(Cc1ccc2[nH]ccc2c1)C1CC1	-3	-7
CCC1(C)OC(=O)N(C2CC(C)(C)NC(C)(C)C2)C1(C)O (stereo not drawn)	8	6
Cc1[nH]cnc1-c1nccn1-c1ccc(-c2ccn[nH]2)cc1	2	0
Cc1nc2ccccc2c(=O)[nH]1	-7	-2
CNc1ncccc1C(=O)NC1CC(=O)N(CCc2cccc(Cl)c2)C1 (stereo not drawn)	-4	-8
O=C(O)c1ccc(N=Cc2ccccc2O)cc1	-3	-4
CC(=O)Nc1cc(Cl)ccc1NCc1ccc(C#N)cc1	0&7	5&-3
Cc1nn(CC(=O)O)c(C)c1NC(=O)CSc1ccncc1	6	7
O=C(c1nc2ccccn2c1CN1CCN2CCCC2C1)N1CCOCC1 (stereo not drawn)	0	-2
O=C(Nc1cnc2n1CCCC2)c1nnc2n1CCCC2	-1	-5
